Bioassay records deposited in PubChem by National Center for Advancing Translational Sciences (NCATS).
Sfp inh: qHTS Assay for Inhibitors of Bacillus subtilis Sfp phosphopantetheinyl transferase (PPTase). Potency, µM, without a hit: max response, negative = inhibition, actives largely listed as inhibitors. AID 1490, 2009. 4'-phosphopantetheinyl transferase ffp (Bacillus subtilis), Q9F4F7. Biochemical Sfp PPTase activity, qHTS. actives 3.5% (n = 310,000); active means well fitted inhibition curve with a large enough effect; inconclusive means small, poorly fitted or top-dose-only effect, or another doubt; inactive means no such curve, though single readings can be large or run the other way;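 further: the enzyme is Sfp with the accession as filed and its product quenches rhodamine fluorescence; potency means the concentration at half of the fitted maximal effect; 0% = enzyme reaction without inhibitor and -100% = no enzyme wells; top concentration of the series not given in the record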
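Step 1, compound plus 15 nM Sfp-PPTase, 15 min, room temperature. Step 2, add rhodamine-CoA (5 uM) and BHQ-2-YbbR (12.5 uM). Step 3, read 525/598 nm fluorescence at 0 and 30 min.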
gsp antagonist: qHTS for Antagonists of gsp, the Etiologic Mutation Responsible for Fibrous Dysplasia/McCune-Albright Syndrome: qHTS; actives 0.4% (n = 340,000); Potency, µM (top dose mostly 76.9 µM), for inactives: top-dose activity change, negative = inhibition, hits mostly inhibitors; gsp-mutant cells, cAMP HTRF, 30 min; control for the full effect not named in the record; active = falling curve of any shape with a large fitted effect; inconclusive = falling curve, mostly with a smaller effect; inactive = flat or rising curve; cell line not stated here;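 further: intracellular cAMP measured with PDE inhibitor Ro 20-1724 present during compound exposure; potency means the concentration at half of the fitted maximal effect; on the % scale 0 is the no-effect control and ±100 the full control effect; nearly all actives have a fitted effect of over 65% in size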
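G418-selected cells were plated in DMEM/10% FBS for 16-24 h at 37C, then treated with compounds plus the PDE inhibitor […] (300 uM solution added) for 30 min at 37C. Intracellular cAMP was measured by HTRF after 30 min lysis at room temperature.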
gsp ag: qHTS for Agonist of gsp, the Etiologic Mutation Responsible for Fibrous Dysplasia/McCune-Albright Syndrome: qHTS; gsp mutant cells, cAMP HTRF, 30 min; control for the full effect not named in the record; Potency, µM (highest dose often 76.9 µM), inactives show at the highest dose activation (cAMP increase), most hits filed as activators; actives 0.13% (n = 340,000); active = well fitted activation curve with a large enough effect; inconclusive = small, poorly fitted or top-dose-only effect, or another doubt; inactive = no such curve, though single readings can be large or run the other way; cell line not stated here;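 further: phosphodiesterase inhibitor Ro 20-1724 added with compounds to block cAMP breakdown; potency means the concentration at half of the fitted maximal effect; nearly all actives have a fitted effect of over 60% in size; about a fifth of the inactives were tested at one dose only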
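Cells in DMEM/10% FBS with G418 were pretreated with compounds in DMSO plus […] (300 uM stock) for 30 min at 37C. cAMP was measured by HTRF (cAMP-d2 plus anti-cAMP antibody-K) after 30 min at room temperature.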
Menin-MLL FL inh: qHTS Assay for Inhibitors Targeting the Menin-MLL Interaction in MLL Related Leukemias: Competition With Fluorescein Labeled MLL-derived Peptide; 290,000 tested, under 10 active; Fluorescence polarization, fluorescein-MLL peptide displacement from menin; FP activity change, % at 61.4 µM; inconclusive = falling polarisation curve, or a change in total fluorescence; inactive = total fluorescence flat and polarisation flat or rising; no compound was filed as active; the % refers to the polarisation; negative = inhibition;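 further: % of control where 0% means no effect; inhibitors lower the polarisation; unlabelled MLL peptide was the positive control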
D2 potentiator: Beta-Arrestin HTS for Positive Allosteric Modulators of the Human D2 Dopamine Receptor: Potentiators. D(2) dopamine receptor (Homo sapiens), P14416. DiscoveRx D2 beta-arrestin cells, luminescence, 90 min; 100% = 57 uM dopamine signal. potentiation, % (concentration not given with the values). actives 0.23% (n = 360,000). AID 624464, 2012; active = potentiation of 50% or more; inconclusive = 30% to 50%; inactive = 30% or less;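 further: compound concentration not given in the record; tested on top of an EC20 dose of dopamine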
Target sequence (P14416 whole entry, looked up): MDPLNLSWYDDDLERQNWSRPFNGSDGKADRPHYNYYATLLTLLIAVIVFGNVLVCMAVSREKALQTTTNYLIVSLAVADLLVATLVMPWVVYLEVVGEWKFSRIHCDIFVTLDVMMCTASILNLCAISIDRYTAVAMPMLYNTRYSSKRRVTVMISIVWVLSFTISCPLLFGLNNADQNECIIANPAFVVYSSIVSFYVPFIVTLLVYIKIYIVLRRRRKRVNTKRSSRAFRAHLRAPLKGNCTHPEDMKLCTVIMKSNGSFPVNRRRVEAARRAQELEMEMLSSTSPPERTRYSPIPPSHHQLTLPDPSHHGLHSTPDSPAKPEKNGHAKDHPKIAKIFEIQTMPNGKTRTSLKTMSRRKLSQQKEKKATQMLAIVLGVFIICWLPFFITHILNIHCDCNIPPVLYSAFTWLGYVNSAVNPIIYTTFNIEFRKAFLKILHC
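D2 cells co-treated with compound plus 50 nM dopamine (EC20) for 90 min at 37 deg C to detect potentiation. Beta-arrestin recruitment was read as enzyme-fragment luminescence after 1 h at ambient temperature. Full response was set by 57 uM dopamine.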
ClpP mod: qHTS Assay for Activators of ClpP. ATP-dependent Clp protease proteolytic subunit (Bacillus subtilis (strain 168)), P80244. purified B. subtilis ClpP, FRET peptide cleavage, 20 min. Potency, µM (doses to about 57.5 µM), for inactives: at the highest dose activity change, negative = active. actives 1.9% (n = 340,000); active = well fitted falling curve with a large enough effect; inconclusive = small, poorly fitted or top-dose-only effect; inactive = no such curve, though single readings can be large or run the other way; further: potency means the concentration at half of the fitted maximal effect; the source files actives as falling curves though it sought activators and does not explain the sign; nearly all actives have a fitted effect of over 65% in size; many hits overshoot -100%
Target sequence (P80244 whole entry, looked up): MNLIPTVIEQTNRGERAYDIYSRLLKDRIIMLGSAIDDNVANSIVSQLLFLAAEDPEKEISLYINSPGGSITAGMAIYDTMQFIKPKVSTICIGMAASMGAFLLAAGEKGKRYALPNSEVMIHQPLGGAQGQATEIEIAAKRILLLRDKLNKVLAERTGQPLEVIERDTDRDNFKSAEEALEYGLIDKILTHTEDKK
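ClpP 10 microg/mL final, pH 8 Tris/KCl buffer with BSA, glycerol, Tween-20; compound pinned in; FRET-FV substrate; RT 20 min; Ex320/Em430; ΔFRET vs ADEP 5.8 microM, DMSO, no enzyme.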
TRPV1 potentiator: HTS Assay for Compounds that Act as Potentiators of the Vanilloid Receptor 1; Transient receptor potential cation channel subfamily V member 1 (Homo sapiens), Q8NER1; actives 0.02% (n = 320,000); potentiation, % at 8.33 µM; TRPV1-expressing cells, Fluo-8 calcium influx, capsaicin EC20 potentiation; host cell line not named in the record; control for the full effect not named in the record; active means potentiation above 80%; inconclusive means 30% to 80%; inactive means below 30%; further: 0% is about no effect
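Cells expressing TRPV1 were dye-loaded with Fluo-8 and read kinetically: 10 s baseline, 3 min after compound (agonist portion), then 2 min after EC20 capsaicin (allosteric enhancer portion). Calcium-bound dye fluorescence at 480/520 nm.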
* hit, by the source's call; ? = inconclusive; · = no result given; & = joins results of further samples; [ ] = remark or other dose.

SMILES	Sfp inh	gsp antagonist	gsp ag	Menin-MLL FL inh	D2 potentiator	ClpP mod	TRPV1 potentiator
O=C(COC(=O)Cc1ccccc1[N+](=O)[O-])NCc1ccc(Cl)cc1	2%	11%	-65%[inhibitor]	7.0	-2	1.6%	-9
COc1ccc(NC(=O)C2C(c3ccccc3)C2(Cl)Cl)c(OC)c1 (stereo not given)	3%	-30%	-26%	0.7	-4	-0.1%	0
C#CCOCCOCCOCCNc1nc(N2CCOCC2)nc(N2CCN(C(=O)[C@H](C)n3cc(CCC(=O)O)nn3)CC2)n1	·	11%	·	·	-3	1.4%	·
CC(=O)NN1CCc2cc3ccc(C)cc3nc21	6%	7%	29%	?	-12	3.2%	15
O=S(=O)(c1ccccc1)c1cccc(S(=O)(=O)N2CCCCC2)c1	0%	-28%	-26%	-1.3	-5	-0.7%	9
COc1ccc(CNC(=O)C(=O)NCC2OCCN2S(=O)(=O)c2ccc3c(c2)OCCO3)cc1 (stereo not given)	18%	0%	23%	2.0	-5	-15%	15
CC(C)(Sc1ccc(CCN(CCCCC2CCCCC2)C(=O)NC2CCCCC2)cc1)C(=O)O	26%&-24%	-28%	·	-0.2&2.3	-3	0.7%	-17
O=C(N/N=C/c1cccnc1)c1ccccc1	3%	3%	1%	-11	1	0.5%	-33
CN(Cc1ccccc1)C(=O)Cc1ccccc1	13%	-6%	0%	-1.7	0	-3.2%	-3
CCn1nnnc1Oc1ccc(Cl)cc1	34%	-4%	12%	3.8	-8	-0.1%	-6
COc1ccc(C2C(C(=O)Nc3ccccn3)=C(C)Nc3ncnn32)c(OC)c1 (stereo not given)	16%	-2%	-1%	0.2	-5	2.3%	-34
CC[N+](C)(CC)CC(=O)OCC1C(C)C=C(C)CC1C (stereo not given)	89µM*	2%	24%	-4.0	-8	·	-4
CCn1c(SCC(=O)c2ccc(OC)cc2)nnc1C(C)NC(=O)c1ccc(OC)cc1 (stereo not given)	-29%	-1%	-29%	4.3	-4	1.6%	13
CC(c1ccco1)N(C(=O)c1cccc(S(=O)(=O)N(C)C)c1)c1ccccn1 (stereo not given)	0%	9%	1%[15.4 µM]	-0.8	0	·	5
Cc1c(C(=O)OCC(=O)N(CC(C)C)c2c(N)n(Cc3ccccc3)c(=O)[nH]c2=O)oc2ccccc12	·	0%	-33%[inhibitor]	·	13	-3.0%	-3
CC(C)C(=O)N1CCN(c2c(Cl)cccc2[N+](=O)[O-])CC1	0%	1%	-3%	6.5	-15	0.7%	-38
COc1ccc(C(=O)NCC(=O)OCc2ccccc2F)cc1	3%	-3%	19%[15.4 µM]	0.6	-12	-0.2%	-12
CC(NC(=O)c1ccco1)C(=O)N1CCN(c2cccc(C(F)(F)F)c2)CC1 (stereo not given)	·	1%	-75%[inhibitor]	·	-2	-2.3%	-36
COC(=O)c1ccccc1NC(=O)c1cc[n+]([O-])cc1	19%	-15%	13%	2.8	-4	-0.6%	20
O=C(CN1C(=O)NC2(CCc3ccccc3C2)C1=O)NCc1ccco1 (stereo not given)	10%	5%	22%[15.4 µM]	2.6	1	-3.5%	0
CCOCCCNC(=O)N[C@H](C(=O)OC)C(C)CC (stereo not given in full)	17%	12%	3%[15.4 µM]	9.9	-18	-4.5%	17
CC(OC(=O)c1ccc(Cl)nc1)C(=O)NC1CCCC1 (stereo not given)	·	25%	19%	·	-4	1.5%	-4
N#Cc1ccc(C(=O)N(Cc2ccccc2)c2ccccc2)cc1	-17%	-13%	-36%[inhibitor]	?	-4	·	0
Cc1cc(S(=O)(=O)ON2C(=O)c3ccccc3C2=O)ccc1F	11µM*	6%	7%	3.3	-2	4.8%	-3
CCCCc1nc2cc(C(=O)N3CCCC(COC)C3)ccc2o1 (stereo not given)	5%	7%	-3%	4.3	12	-0.6%	-6

Fetched by compound from above:
SMILES	Sfp inh	gsp antagonist	gsp ag	Menin-MLL FL inh	D2 potentiator	ClpP mod	TRPV1 potentiator
COc1ccc(C(=O)NCC(=O)OCc2ccccc2F)cc1	3%	-3%	19%[15.4 µM]	0.6	-12	-0.2%	-12
CC(C)C(=O)N1CCN(c2c(Cl)cccc2[N+](=O)[O-])CC1	0%	1%	-3%	6.5	-15	0.7%	-38

New compounds follow.
SMILES	Sfp inh	gsp antagonist	gsp ag	Menin-MLL FL inh	D2 potentiator	ClpP mod	TRPV1 potentiator
O=C(OCc1ccccc1)N1CCCC2CC1c1ccccc12 (stereo not given)	·	·	4%	·	1	2.1%	·
Cc1ccc(NC(=O)C(C)Sc2nnc(-c3cccnc3)o2)cc1 (stereo not given)	23%	7%	-2%	-0.3	3	-0.8%	-10
O=C(COC(=O)C1=COCCO1)NCc1ccc(F)cc1	12%	-4%	29%	·	-13	-2.2%	-5
Fc1ccc(COc2ccccc2CNCc2ccncc2)cc1	-7%	-2%	6%	4.7	-25	1.3%	-4
COc1ccc([N+](=O)[O-])cc1NC(=O)C(C)OC(=O)c1ccccn1 (stereo not given)	16%	-6%	3%[15.4 µM]	3.5	-6	·	3
COc1ccc2c(c1)-c1c(ssc1=S)C(C)(C)N2S(=O)(=O)c1ccc(C)cc1	2%	12%	?	-1.9	-11	-2.0%	-4
CCN(CCNC(=O)C1=C(C)C(=O)OC12CCC(C)CC2)c1ccccc1 (stereo not given)	6%	-9%	-5%[15.4 µM]	6.2	-9	·	-32
Cc1c(OC(C)C(=O)NCc2ccncc2)ccc2c3c(c(=O)oc12)CCCC3 (stereo not given)	11%	?	?	·	11	3.4%	-24
CN1CCN(c2nc(Nc3cccc(C(F)(F)F)c3)nc(N3CCOCC3)n2)CC1	2%	16%	-2%	0.8	-24	0.9%	-2
CCCCOc1ccc(NC(=O)CSc2cccc3cccnc23)cc1	-10%	-11%	-10%	2.5	0	·	-19
Cc1ccc(NC(=O)CN2C(=O)S/C(=C\c3cc(C)n(-c4cccc(C(=O)O)c4)c3C)C2=O)cc1	-27%	-25%	21%[15.4 µM]	8.2	0	·	3
Oc1ccc(NCc2ccc(OCc3ccccc3)cc2)cc1	56µM*	-5%	-4%	?	14	-5.3%&-2.4%	-22
CCOC(=O)C(C(=O)NCc1ccc(C)cc1)c1ncc(C(F)(F)F)cc1Cl (stereo not given)	10%	3%	-48%[inhibitor]	1.3	-4	0.8%	4
O=C1CC(N2CCc3ccccc32)C(=O)N1c1ccccc1 (stereo not given)	18%	4%	15%[15.4 µM]	-2.1	-7	·	-11
COc1cc2c(C#N)c(N3CCN(c4ccccc4OC)CC3)nc(N)c2c(N)n1	-22%	-7%	11%	-1.1	?	32µM*	-18
CCn1c(P(C)(=O)O)nc2cc(NC(=O)c3ccccc3Cl)ccc21	3%	?	-21%[15.4 µM]	-2.5	-4	·	-3
COc1cc(/C=C2\SC(=O)N(CCNC(=O)c3sc4cc(F)ccc4c3Cl)C2=O)cc(OC)c1OC	-9%	-4%	12%[15.4 µM]	18	-2	·	-3
CCOC(=O)CSc1nnc(CNC(=O)c2cccs2)n1Cc1ccccc1	17%	1%	-16%	1.0	9	-0.8%	-11
Cc1ccccc1NC(=O)COC(=O)CCSc1ccccc1	11%	·	8%[15.4 µM]	3.1	-44	·	-24
COC(CN1CCc2c(C)nc3c(C#N)cnn3c21)OC	14%	-4%	20%	9.0	-9	3.7%	1
CC(=O)c1ccc(NC(=O)c2ccc3c(=O)n4c(nc3c2)CCCCC4)cc1	3%	?	-30%	·	1	-0.4%	-10
CCOc1ccccc1/C=N/NC(=O)CSc1n[nH]c(=O)[nH]c1=O	31%	4%	-4%	-3.3	-6	-12%	12
Cc1cc(C(=O)Nc2ccc(Cl)cc2)c(C)n1Cc1cccs1	-15%	7%	-1%[15.4 µM]	-1.1	-1	·	-3
CCC1CCC2(CC1)NC(=O)N(CC(=O)c1c(C)[nH]c3ccccc13)C2=O (stereo not given)	8%	-11%	16%[15.4 µM]	3.3	-7	-1.6%	-11
Cc1nn(Cc2ccccc2Cl)c(C)c1NC(=O)NC12CC3CC(CC(C3)C1)C2	1%	-20%	-1%	-0.9	9	-1.2%	-14
CCOC(=O)c1sc(NC(=O)c2ccc(S(=O)(=O)N(C)C)cc2)nc1C	4%	2%	37%	6.5	-19	-12%	-12
COc1ccc(NC(=O)CN(C)C(=O)CCC2CCCC2)cc1	1%	5%	-58%[inhibitor]	·	-13	-0.2%	0
C/C(=N\Nc1cccc2cccnc12)c1ccc(N)cc1	?	-22%	0%	12	6	0.1%	-3
COc1ccc(OC)c(NC(=O)CNC(c2ccccc2)c2ccccc2)c1	0%	-32%	-41%[inhibitor]	-6.6	-3	-0.2%	-1

Taken from above:
ClpP mod with `Fc1ccc(COc2ccccc2CNCc2ccncc2)cc1` : 1.3%
D2 potentiator with `Cc1ccc(NC(=O)C(C)Sc2nnc(-c3cccnc3)o2)cc1` (stereo not given) : 3
gsp ag with `CCOC(=O)C(C(=O)NCc1ccc(C)cc1)c1ncc(C(F)(F)F)cc1Cl` (stereo not given) : -48%[inhibitor]

Another view of 4 compounds above.
molecule,Sfp inh,gsp antagonist,gsp ag,Menin-MLL FL inh,D2 potentiator,ClpP mod,TRPV1 potentiator
CCCCOc1ccc(NC(=O)CSc2cccc3cccnc23)cc1,-10%,-11%,-10%,2.5,0,·,-19
Cc1ccc(NC(=O)C(C)Sc2nnc(-c3cccnc3)o2)cc1 (stereo not given),23%,7%,-2%,-0.3,3,-0.8%,-10
Cc1ccc(NC(=O)CN2C(=O)S/C(=C\c3cc(C)n(-c4cccc(C(=O)O)c4)c3C)C2=O)cc1,-27%,-25%,21%[15.4 µM],8.2,0,·,3
C/C(=N\Nc1cccc2cccnc12)c1ccc(N)cc1,?,-22%,0%,12,6,0.1%,-3
